Compound activity deposited in PubChem BioAssay by ICCB-Longwood Screening Facility, Harvard Medical School.
Anaer choline gr – growth inhibitors of anaerobic choline-fed gram-negatives, minimal medium, absorbance; Gram-negative bacterium anaerobic choline minimal medium; hits give low values; many inactives read as strong as hits in the columns shown; calls only; 55,000 tested, 0.2% active; AID 1963822, 2024;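 active means growth z-score on choline under -2 at 7 or 20 h with little or no fall on glycerol, limits in tiers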;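 further: stock transfer was 300 nL into about 50 µL; the organism is E. coli; final concentration not given here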
Anaer choline gr early – also measured in Anaer choline gr; calls as there; z-score; measured here: choline growth z-score, timepoint 1;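 score of optical density at 7 h as mean of two plates; lower means less growth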
Starred values were filed as active, the others as inactive; i = inactive; & = joins results of further samples. A portion of the library; count on the stated rates, not on these rows.

SMILES	Anaer choline gr	Anaer choline gr early
COc1cccc(NC(=O)CSc2nc3c(sc4ncccc43)c(=O)n2Cc2ccc(C)cc2)c1	i	1.05
CCOC(=O)c1nc2ccccc2n(C(=O)c2cccc(Cl)c2)c1=O	i	1.05
O=C(Cc1csc(NC(=O)Nc2ccc(Cl)cc2)n1)Nc1ccc(Cl)cc1	i	1.45
CCOc1ccc(CN2CCCC2c2cc(C(C)C)no2)cc1 (stereo not given)	i	-0.54
CC1CCc2noc(NC(=O)c3ccc(C(C)(C)C)cc3)c2C1 (stereo not given)	i	0.01
COc1ccc(Cl)cc1NCc1cc(=O)n2[nH]c(NCc3ccccc3)nc2n1	i	0.37
COc1ccc(N2CCN(C(=O)c3nn(-c4ccc(OC)cc4)c(=O)n(C)c3=O)CC2)cc1	i	-1.27
COCCn1nnc2cc(S(=O)(=O)N3CCCC3C(=O)NCCC3=CCCCC3)ccc21 (stereo not given)	i	-1.6
O=C(Nc1ccc(Cl)cc1)C1Nc2cc(F)ccc2S(=O)(=O)N1 (stereo not given)	i	-0.06
CC(C)(C)C(=O)Nc1nc(CC(=O)NCc2ccncc2)cs1	i	-0.54
Cn1c(=O)n(C)c2cc(Oc3ccccc3)c(NS(=O)(=O)c3ccc4c(c3)CCC4)cc21	i	1.65
CCc1c(C)nc2ncnn2c1Sc1ccc(NS(=O)(=O)c2ccc3c(c2)n(C)c(=O)n3C)cc1	i	0.28
Cc1nn(-c2ccc3nncn3n2)c2c1C(c1ccc(OCc3ccccc3)cc1)CC(=O)N2 (stereo not given)	i	0.29
COc1ccccc1N1CCN(c2ccc(=O)n(CC(=O)NC3CCCCC3)n2)CC1	i	-0.27
COc1ccc(NCc2cccn2-c2nnc(N3CCN(c4ccccc4)CC3)s2)cc1	i	1.89
CC(C)CCNC(=O)CCCCn1c(=O)c2ccccc2n(CC(=O)Nc2cccc(Cl)c2)c1=O	i	0.73
Cc1ccccc1Cn1cc(C(=O)Nc2cc(F)ccc2F)ccc1=O	i	-0.18
Cc1ccsc1-c1nnc(C2CCC2)o1	i	-0.96
O=C(c1cnc2ccccc2c1S(=O)(=O)c1ccc(Br)cc1)N1CCSCC1	i	-1.2
c1ccc2c(c1)CCC[C@H]2Nc1nc2ccccc2[nH]1	i	-0.97
COc1ccc(N2CCN(CCCNC(=O)CCCn3c(=O)[nH]c4ccc(Br)cc4c3=O)CC2)cc1	i	-0.33
O=C(Nc1ccccc1)N1CCN(Cc2cc(=O)n3nc(-c4cccc(Cl)c4)sc3n2)CC1	i	1.38
C[C@]1(Cn2ccnn2)[C@H](C(=O)O)N2C(=O)C[C@H]2S1(=O)=O	i	0.76
Cc1cc(C)cc(NC(=O)c2[nH]c(C)c(S(=O)(=O)N3CCCC3)c2C)c1	i	-0.85
Cc1cc(N2C(=O)Cn3cccc3C2C(=O)NC2CCCC2)ccc1Br (stereo not given)	i	0.34

The results go on.
SMILES	Anaer choline gr	Anaer choline gr early
O=S(=O)(NCc1nc2cccnc2n1C1CCCC1)c1ccc(F)cc1	i	-0.8
O=C(NCC1CCCO1)C1CCCN(c2ccnc(-c3cccc(F)c3)n2)C1 (stereo not given)	i	-0.32
O=C(Cc1cccc(F)c1)N1CCC(N2CCN(Cc3ccccc3)C(=O)C2=O)CC1	i	-0.96
CCOC(=O)c1c(C)[nH]c(CCC(=O)NCCCN2CCC(N3CCCCC3)CC2)c1C	i	0.8
COC(=O)c1ccc(-c2nc3cnccn3c2Nc2ccc3c(c2)OCCO3)cc1	i	0.59
Cc1scc2nc(C(C)C)nc(N3CCC(C(=O)N4CCC5(CC4)OCCO5)CC3)c12	i	0.19
CCc1ccc(C2=NNC(=O)CC2)cc1	i	-0.38
Cc1nc(SCc2nc3ccccc3[nH]2)[nH]c(=O)c1Cc1ccccc1	i	-0.66
CCOc1cccc2sc(N3CCN(C(=O)c4ccc5c(c4)OCCO5)CC3)nc12	i	0.31
O=S(=O)(c1cn(Cc2noc(COc3ccc(Cl)cc3)n2)cn1)N1CCCCC1	i	-1.06
CCOC(=O)c1ccccc1NC(=O)Cn1c(=O)n(-c2cccc(C)c2)c(=O)c2c1c1cc(C)ccc1n2C	i	0.81
Cc1cc(C)cc(NC(=O)c2cccc(NC3=NC4CS(=O)(=O)CC4S3)c2)c1 (stereo not given)	i	-1.95
COc1ccc2[nH]cc(CCNC(=O)CC3CCN(C(=O)C4CCCCC4)CC3)c2c1	i	-1.13
Cc1cc(C)c(S(=O)(=O)N2CCC3(CC2)NCCN=C3NC(C)(C)C)c(C)c1	i	-0.16
CS(=O)(=O)N1CCCC(C(=O)NCCCN2CCC(Cc3ccccc3)CC2)C1 (stereo not given)	i	0.18
CCCCC[C@H](O)/C=C/[C@H]1[C@H](O)CC(=O)[C@@H]1C/C=C\CCCC(=O)OCC(O)CO (stereo not given in full)	i	0.91
CCc1cc2c(cc3n2CC(C)(C(=O)NC2CCCCC2)N(CCN2CCOCC2)C3=O)s1 (stereo not given)	i	0.38
Cn1nccc1-c1csc(S(=O)(=O)N2CCCCC2)c1	i	-0.64
O=C(NCc1ccccn1)c1nc(-c2ccc(N3CCCC3)cc2)no1	i	1.08
CCCNS(=O)(=O)c1ccc(-c2cc(C(F)(F)F)on2)o1	i	0.39
CCc1nc(-c2ccc3c(c2)CCN3C(=O)Cc2ccc(Br)cc2)no1	i	0.99
O=C(NCCCN1CCC(N2CCCCC2)CC1)c1nnc(C(=O)Nc2ccccc2)s1	i	-0.81
O=C(Nc1ccc(Cl)cc1)C1CCCN(c2nc3cccnc3s2)C1 (stereo not given)	i	-0.99
Cc1ccc(NC(=O)Nc2ccc(SCc3cc(=O)n4c(ncn4C(C)C)n3)cc2)cc1C	i	-0.06
CC(C)c1ccc(NC(=O)C2CCN(Cc3noc(-c4ccc(F)cc4)n3)CC2)cc1	i	0.95

Nothing new here: an excerpt of the list.
SMILES	Anaer choline gr	Anaer choline gr early
O=S(=O)(NCc1nc2cccnc2n1C1CCCC1)c1ccc(F)cc1	i	-0.8
O=C(NCC1CCCO1)C1CCCN(c2ccnc(-c3cccc(F)c3)n2)C1 (stereo not given)	i	-0.32
O=C(Cc1cccc(F)c1)N1CCC(N2CCN(Cc3ccccc3)C(=O)C2=O)CC1	i	-0.96
CCOC(=O)c1c(C)[nH]c(CCC(=O)NCCCN2CCC(N3CCCCC3)CC2)c1C	i	0.8
COC(=O)c1ccc(-c2nc3cnccn3c2Nc2ccc3c(c2)OCCO3)cc1	i	0.59
Cc1scc2nc(C(C)C)nc(N3CCC(C(=O)N4CCC5(CC4)OCCO5)CC3)c12	i	0.19
CCc1ccc(C2=NNC(=O)CC2)cc1	i	-0.38
Cc1nc(SCc2nc3ccccc3[nH]2)[nH]c(=O)c1Cc1ccccc1	i	-0.66
CCOc1cccc2sc(N3CCN(C(=O)c4ccc5c(c4)OCCO5)CC3)nc12	i	0.31
O=S(=O)(c1cn(Cc2noc(COc3ccc(Cl)cc3)n2)cn1)N1CCCCC1	i	-1.06
CCOC(=O)c1ccccc1NC(=O)Cn1c(=O)n(-c2cccc(C)c2)c(=O)c2c1c1cc(C)ccc1n2C	i	0.81
Cc1cc(C)cc(NC(=O)c2cccc(NC3=NC4CS(=O)(=O)CC4S3)c2)c1 (stereo not given)	i	-1.95
COc1ccc2[nH]cc(CCNC(=O)CC3CCN(C(=O)C4CCCCC4)CC3)c2c1	i	-1.13
Cc1cc(C)c(S(=O)(=O)N2CCC3(CC2)NCCN=C3NC(C)(C)C)c(C)c1	i	-0.16

Next compounds follow:
SMILES	Anaer choline gr	Anaer choline gr early
COc1ccc(OC)c(NC(=O)C2CCCN(S(=O)(=O)Cc3ccccc3)C2)c1 (stereo not given)	i	0.4
Cc1cc(C)nc(NS(=O)(=O)c2ccc(N)cc2)n1	i	0.47&-0.24
Cc1c(-c2nnc(C(=O)NC3CCCC3)o2)oc2ccccc12	i	-0.39
Cc1ccc(NC(=O)N2CCC[C@@H]2C(=O)NCc2csc(-c3ccccc3)n2)cc1C	i	-0.5
Cn1cc2nc(SCC(=O)Nc3ccc(Br)cc3)n(CC3CC3)c(=O)c2n1	i	0.77
CCNC(=O)c1ccc(CN2C(=O)C(C)=C(c3ccc(C)c(C)c3)S2(=O)=O)cc1	i	0.71
O=C(C1CCC(=O)N1S(=O)(=O)c1ccccc1)N1CCc2ccccc2C1 (stereo not given)	i	0.64
CCN(CC)c1c(S(=O)(=O)c2ccccc2)cnc2ccc(C)cc12	i	0.53
COc1cc(C2CC(=O)Nc3c2cnn3-c2nc3ccccc3s2)ccc1OCc1ccccc1 (stereo not given)	i	0.15
Cc1nc(N2CCCC(C(=O)N3CCCC3)C2)c2c(C)c(C)oc2n1 (stereo not given)	i	-0.44
CCN(Cc1ccccc1)c1ccc(NS(=O)(=O)CC)cc1C(=O)O	i	-1.55
N#CC1CCCN1C(=O)CNC12CC3CC(CC(O)(C3)C1)C2 (stereo not given)	i	0.69
O=C(Nc1ccc(SCc2nnc(-c3ccccc3)o2)cc1)c1ccc(Cl)cc1	i	-1.01
CC(C)Cn1c(=O)c(-c2ccc(C(=O)NCCCN3CCCC3)cc2)nc2ccccc21	i	-0.5
O=c1n(Cc2ccccc2)nc2c(S(=O)(=O)N3CCCCCC3)cccn12	i	1.07
O=C(NC1CC1)c1cccc(Oc2cc(-c3cccc(F)c3)ncn2)c1	i	0.88
CCOc1cc(C)c(S(=O)(=O)N2CCc3cc4cccc(C)c4nc32)cc1C	i	0.58
NC(=O)CCCCC1CCSS1 (stereo not given)	i	0.69
Brc1cn2c(Nc3ccc4c(c3)OCO4)c(-c3ccccc3)nc2cn1	i	2.17
C=CCNC(=O)CN1c2ccc(F)cc2-c2ccccc2S1(=O)=O	i	1.12
O=C1CCC(=O)N1c1ccc(Cl)cc1	i	1.05
Cc1ccc(-c2nc(CNC(=O)CN3C(=O)c4ccccc4C3=O)no2)cc1	i	-0.28
CC1CCN(c2cc(-n3ccnc3)ncn2)CC1	i	-1.13
Cc1ccc(C)c(N2C(=O)N(Cc3cc(F)cc(F)c3)c3ccccc3S2(=O)=O)c1	i	1.85
CCn1c(=O)c(N2CCC(C(=O)NCc3ccc(OC)cc3)CC2)nc2cccnc21	i	-0.88

Going on with the list:
SMILES	Anaer choline gr	Anaer choline gr early
CN(C)C(CNS(=O)(=O)c1ccc(Cl)cc1)c1ccccc1 (stereo not given)	i	-1.74
COc1ccc(C(=O)Nc2ccc(-c3ccc4ccccc4n3)cc2)cc1OC	i	0
O=C(C1CCN(c2ccc3cc(S(=O)(=O)N4CCCCC4)ccc3n2)CC1)N1CCCC1	i	0.03
COc1ccc2cc3c(nc2c1)N(C(=O)c1ccc(S(=O)(=O)N(C)C)cc1)CC3	i	1.34
O=c1[nH]nc(SCc2cc(=O)n3ccccc3n2)n2nc(-c3ccc(F)cc3)cc12	i	-0.09
CN(C)c1ccc(C(CNS(C)(=O)=O)N(C)C)cc1 (stereo not given)	i	1.47
Cc1cccc(-c2noc(Cc3nc(-c4ccccc4)cs3)n2)c1	i	1.51
Cn1c(=O)c(-c2noc(C(=O)N3CCC(c4ccccc4)C3)n2)nn(-c2ccccc2)c1=O (stereo not given)	i	-1.11
CCCC(=O)N(Cc1nc2nc(C)cc(C)n2n1)c1ccccc1	i	-0.24
COc1ccc(CC(=O)Nc2ccc3nc(NS(C)(=O)=O)sc3c2)cc1OC	i	-0.17
O=C(CN1C(=O)C2CCCCN2c2ccc(C(=O)N3CCCCC3)cc21)N1CCCCC1 (stereo not given)	i	-0.97
O=C(Nc1cccc2nsnc12)C1CCN(S(=O)(=O)N2CCCC2)CC1	i	0.12
Cc1nc(-c2cc(S(=O)(=O)NCC(=O)N3CCc4ccccc4C3)c(C)s2)no1	i	-0.76
Cc1cc(N2CCOCC2)nc(N2CCN(C(=O)C3CCCCC3)CC2)n1	i	-0.6
Cc1cc(C2CCCN2C(=O)c2cc(-c3ccccc3)on2)on1 (stereo not given)	i	-0.8
CN(C)c1ncncc1N1CCC(C(=O)N2CCC(N3CCCCC3)CC2)CC1	i	0.67
O=S(=O)(NCCn1c(-c2ccncc2)nc2cccnc21)c1ccc(Cl)cc1	i	-0.31
O=C(CN1CCN(c2ccc(F)cc2)CC1)N1c2ccccc2CCc2ccccc21	i	-0.11
COc1cccc(N2C(=O)c3cccnc3C2Nc2ccc(C)c(C)c2)c1 (stereo not given)	i	-2
CCS(=O)(=O)N1CCC2(CC1)Nc1ccc(Cl)cc1-n1cccc12	i	0.02
O=C(NC1CCN(Cc2ccccc2)CC1)c1noc2c1CSc1ccccc1-2	i	-0.57
CCS(=O)(=O)N1CCC2(CC1)OC(=O)C(C)=C2C(=O)NCCN(CC(C)C)CC(C)C	i	0.61
CCS(=O)(=O)N1CCCN(C(=O)C2CCCC2)CC1	i	-0.31
O=S(=O)(c1ccc(-c2ccno2)s1)N1CCCCC1	i	-0.35
CCCCCCNC(=O)C1CCN(c2ccc(-c3ccccc3)nn2)CC1	i	1.45

Remaining list, next part.
SMILES	Anaer choline gr	Anaer choline gr early
COC(=O)c1cc(S(=O)(=O)N2CCCC2C(=O)Nc2ccc(F)cc2)cn1C (stereo not given)	i	-0.19
CCOC(=O)c1[nH]c(C)c(CCC(=O)N2CCCC(C(=O)NCCCOC(C)C)C2)c1C (stereo not given)	i	0.53
O=C(c1ccc(N2CCNCC2)c(NS(=O)(=O)c2ccccc2)c1)N1CCN(C2CCCCC2)CC1	i	0.61
COc1ccccc1N1CCn2c1nc1c2c(=O)n(CC(=O)O)c(=O)n1C	i	-1.35
Cc1cc(N2CCCC2)nc2ccc(NC(=O)c3ccc4c(c3)OCO4)cc12	i	-0.56
CS(=O)(=O)N1CCC(n2cnc3ccc(F)cc3c2=O)CC1	i	-1.28
O=C(NCCc1ccc(Cl)cc1)c1ccc2c(c1)N(Cc1ccccc1)CCS2	i	-0.32
O=C(NC1CCCCC1)c1nnc(-c2ccc(S(=O)(=O)N3CCCC3)cc2)o1	i	-0.47
CCOc1ccc2oc(C)c(C(=O)Nc3ccc(N(C)C(C)=O)cc3)c2c1	i	-0.46
CCN(c1ccccc1)S(=O)(=O)c1ccc2[nH]cc(C(=O)N3CCC(C)CC3)c(=O)c2c1	i	0.16
Cc1ccc2nc(C(=O)O)cc(Nc3ccc(C)c(F)c3)c2c1	i	-0.3
CCSc1nsc(NC(=O)Nc2ccc(Cl)cc2)n1	i	-0.05
